# Compound activity deposited in PubChem BioAssay by Broad Institute.
# A1 apoptosis 2 = A1 inhibitors via caspase activation, primary screen, cell-based, luminescence, HTS, two replicates. 24,000 tested, under 10 active. caspase activation, % (test concentration not listed). MEF A1-2A-BIM cells, caspase-Glo luminescence, 3 h; percent of clofoctol response, DMSO zero; in the data active = caspase activation above about 5.9%;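 also: wells of about 30 µL received 50 nL stock; the first replicate is given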
#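 system = A1-2A-BIM-expressing MEF cells | quantity = 2500 MEF cells/well | dosing = 50 nL compound per well, pinned | schedule = overnight cell settling, then 3 h compound exposure, 37 °C | signal = luminescence from DEVD-luciferin Caspase-Glo reagent, 1:1 in 50 mM HEPES, 1 h RT | read-out = Caspase-3/7 activation, seen as rise in luminescence signal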
# The depositor's hits bear a star.
structure	A1 apoptosis 2
C[C@H](CO)N1C[C@H](C)[C@H](CN(C)S(=O)(=O)c2ccc(C#N)cc2)Oc2ncc(-c3ccccc3)cc2C1=O	0.3
C[C@@H]1CN([C@H](C)CO)C(=O)c2cccc(NS(C)(=O)=O)c2O[C@H]1CN(C)C(=O)Nc1ccc(C(F)(F)F)cc1	1.8
C[C@H](CO)N1C[C@H](C)[C@H](CN(C)Cc2ccncc2)Oc2ccc(N(C)C)cc2CC1=O	0.6
CC(C)(C)[C@@H]1C=C(C(=O)O)O[C@H](OCc2ccc(CO)cc2)C1	-0.5
C[C@H]1CN([C@@H](C)CO)C(=O)c2cccc(NC(=O)c3nc4ccccc4s3)c2O[C@H]1CN(C)C(=O)Nc1ccc(C(F)(F)F)cc1	-0.5
COc1ccc(S(=O)(=O)Nc2ccc3c(c2)CC(=O)N([C@H](C)CO)C[C@@H](C)[C@@H](CN(C)S(=O)(=O)c2ccc(F)cc2)O3)cc1	-0.1
COc1ccc(S(=O)(=O)N(C)C[C@@H]2OCCCC[C@@H](C)Oc3ccc(NC(=O)Cc4ccccc4)cc3C(=O)N([C@@H](C)CO)C[C@@H]2C)cc1	-2.0
COc1ccc(NC(=O)N(C)C[C@@H]2Oc3c(NC(=O)Nc4ccccc4)cccc3C(=O)N([C@@H](C)CO)C[C@@H]2C)cc1	-0.4
COc1ccc(NC(=O)Nc2cccc3c2O[C@H](CN(C)CC2CC2)[C@@H](C)CN([C@@H](C)CO)C3=O)cc1	-1.0
C[C@H](CO)N1C[C@H](C)[C@H](CN(C)S(=O)(=O)c2ccccc2)Oc2ncc(C#Cc3ccc(F)cc3)cc2C1=O	-0.3
Cc1noc(C)c1S(=O)(=O)Nc1ccc2c(c1)C(=O)N([C@H](C)CO)C[C@@H](C)[C@@H](CN(C)C)OCCCC[C@@H](C)O2	-0.3
COc1ccc(CN(C)C[C@H]2OCCCC[C@@H](C)Oc3ccc(NS(=O)(=O)c4ccc(F)cc4)cc3C(=O)N([C@H](C)CO)C[C@@H]2C)cc1	-0.9
CC(C)NC(=O)Nc1ccc2c(c1)CC(=O)N([C@H](C)CO)C[C@@H](C)[C@@H](CN(C)Cc1ccccc1)O2	-0.7
Cc1noc(C)c1NC(=O)N(C)C[C@@H]1OCc2cnnn2CCCC(=O)N([C@H](C)CO)C[C@H]1C	0.6
C[C@@H]1CCCCO[C@H](CN(C)S(=O)(=O)c2ccc(Cl)cc2)[C@H](C)CN([C@H](C)CO)C(=O)c2cc(NS(=O)(=O)c3ccc(Cl)cc3)ccc2O1	-1.7

# Another view of 4 compounds above:
COc1ccc(CN(C)C[C@H]2OCCCC[C@@H](C)Oc3ccc(NS(=O)(=O)c4ccc(F)cc4)cc3C(=O)N([C@H](C)CO)C[C@@H]2C)cc1
  A1 apoptosis 2 = -0.9
CC(C)NC(=O)Nc1ccc2c(c1)CC(=O)N([C@H](C)CO)C[C@@H](C)[C@@H](CN(C)Cc1ccccc1)O2
  A1 apoptosis 2 = -0.7
Cc1noc(C)c1NC(=O)N(C)C[C@@H]1OCc2cnnn2CCCC(=O)N([C@H](C)CO)C[C@H]1C
  A1 apoptosis 2 = 0.6
C[C@@H]1CCCCO[C@H](CN(C)S(=O)(=O)c2ccc(Cl)cc2)[C@H](C)CN([C@H](C)CO)C(=O)c2cc(NS(=O)(=O)c3ccc(Cl)cc3)ccc2O1
  A1 apoptosis 2 = -1.7

# (listing goes on)
structure	A1 apoptosis 2
CCCN(C)C[C@H]1OCCCC[C@H](C)Oc2ccc(NS(=O)(=O)c3cccs3)cc2C(=O)N([C@@H](C)CO)C[C@H]1C	-1.0
CO[C@H]1O[C@H](CO)[C@@H](OC(=O)Nc2cccc(F)c2)[C@H](OC(=O)Nc2ccccc2)[C@H]1OC(=O)Nc1ccccc1	1.4
Cc1ccc(S(=O)(=O)Nc2ccc3c(c2)C(=O)N([C@H](C)CO)C[C@H](C)[C@H](CN(C)C(=O)Nc2c(C)noc2C)OCCCC[C@@H](C)O3)cc1	0.5
CNC[C@H]1Oc2ccc(NS(=O)(=O)c3ccccc3)cc2CC(=O)N([C@H](C)CO)C[C@@H]1C	0.6
Cc1noc(C)c1S(=O)(=O)Nc1ccc2c(c1)C(=O)N([C@@H](C)CO)C[C@@H](C)[C@@H](CN(C)Cc1ccc(C(=O)O)cc1)OCCCC[C@@H](C)O2	0.6
C[C@@H]1CN([C@H](C)CO)C(=O)c2cccc(NS(=O)(=O)c3cccs3)c2O[C@@H]1CN(C)C(=O)Nc1ccc(F)cc1	-0.9
C[C@H]1CN([C@@H](C)CO)C(=O)c2cc(NC(=O)CCCCCC(=O)Nc3ccccc3N)ccc2O[C@@H]1CN(C)CC1CCCCC1	0.7
C=CCOC(=O)C1=C[C@@H](c2ccc3c(c2)OCO3)C[C@@H](OCCCCO)O1	1.7
COc1ccc(NC(=O)N(C)C[C@@H]2OCCCC[C@@H](C)Oc3ccc(NS(=O)(=O)c4c(C)noc4C)cc3C(=O)N([C@H](C)CO)C[C@@H]2C)cc1	-0.2
C[C@@H]1CN([C@H](C)CO)C(=O)Cc2cc(NS(=O)(=O)c3ccc(Cl)cc3)ccc2O[C@@H]1CN(C)Cc1ccc(C(F)(F)F)cc1	0.3
C[C@@H]1CN([C@@H](C)CO)C(=O)CCCn2cc(nn2)CO[C@@H]1CN(C)Cc1ccncc1	0.3
Cc1noc(C)c1NC(=O)Nc1ccc2c(c1)C(=O)N([C@H](C)CO)C[C@@H](C)[C@@H](CN(C)C(=O)C1CCCCC1)OCCCC[C@H](C)O2	0.6
C[C@H]1CN([C@@H](C)CO)C(=O)c2cccc(NS(=O)(=O)c3ccccc3)c2O[C@H]1CN(C)Cc1ccc2c(c1)OCO2	0.8
C[C@H]1CCCCO[C@H](CN(C)C(=O)CCCN(C)C)[C@@H](C)CN([C@@H](C)CO)C(=O)c2cc(NC(=O)Nc3cccc4ccccc34)ccc2O1	-1.2
C[C@H](CO)N1C[C@H](C)[C@@H](CN(C)Cc2ccc(C(=O)O)cc2)Oc2ccc(NC(=O)C3CC3)cc2C1=O	-0.3

# Next section:
mol,A1 apoptosis 2
COc1ccc(CN(C)C[C@@H]2Oc3ccc(NS(=O)(=O)c4ccccc4)cc3CC(=O)N([C@H](C)CO)C[C@@H]2C)cc1,-1.1
COc1ccc(NC(=O)N(C)C[C@H]2Oc3c(NC(=O)C4CC4)cccc3C(=O)N([C@@H](C)CO)C[C@H]2C)cc1,1.2
CN1C(=O)N[C@@H]2c3ccccc3O[C@@]1(C)[C@@H]2CO,0.4
C[C@H](CO)N1C[C@H](C)[C@@H](CN(C)C(=O)Nc2ccc(C(F)(F)F)cc2)Oc2c(NS(=O)(=O)c3cccs3)cccc2C1=O,1.4
Cc1noc(C)c1S(=O)(=O)Nc1cccc2c1O[C@@H](CN(C)C(=O)Nc1ccc(C(F)(F)F)cc1)[C@@H](C)CN([C@H](C)CO)C2=O,0.4
Cc1noc(C)c1S(=O)(=O)N(C)C[C@@H]1Oc2ccc(NC(=O)C3CCCCC3)cc2CC(=O)N([C@@H](C)CO)C[C@@H]1C,0.2
C[C@H]1CN([C@@H](C)CO)C(=O)c2cc(NC(=O)CCN3CCOCC3)ccc2O[C@H]1CN(C)CC1CC1,2.1
C[C@@H]1CN([C@H](C)CO)C(=O)c2cc(N(C)C)ccc2O[C@@H](C)CCCCO[C@H]1CN(C)S(=O)(=O)c1ccccc1,0.3
COc1ccc(NC(=O)Nc2ccc3c(c2)C(=O)N([C@H](C)CO)C[C@@H](C)[C@@H](CN(C)Cc2ccc(C(=O)O)cc2)O3)cc1,0.3
C[C@@H]1CN([C@@H](C)CO)C(=O)c2cc(NC(=O)Nc3ccc(F)cc3)ccc2O[C@@H]1CN(C)C(=O)NC1CCCCC1,-0.8
Cc1noc(C)c1NC(=O)Nc1ccc2c(c1)CC(=O)N([C@H](C)CO)C[C@@H](C)[C@@H](CN(C)C(=O)Nc1ccccc1)O2,-0.6
O=C(CCCCC(=O)N/N=C/c1ccc(C(=O)O)cc1)NO,-1.7
C[C@@H]1CN([C@H](C)CO)C(=O)c2cccc(NC(=O)C3CCOCC3)c2O[C@H]1CN(C)Cc1ccc(C(F)(F)F)cc1,0.4
CC(C)NC(=O)N(C)C[C@@H]1OCCCC[C@@H](C)Oc2ccc(NC(=O)Cc3ccccc3)cc2C(=O)N([C@H](C)CO)C[C@@H]1C,0.4
C[C@H](CO)N1C[C@H](C)[C@@H](CN(C)S(=O)(=O)c2ccccc2)Oc2ccc(NC(=O)Nc3ccc(C(F)(F)F)cc3)cc2CC1=O,-0.6
C[C@@H]1CCCCO[C@@H](CN(C)C(=O)CCC(F)(F)F)[C@@H](C)CN([C@H](C)CO)C(=O)c2cc(NC(=O)Cc3ccccc3)ccc2O1,0.5
COCCOC(=O)N1C(=O)[C@@]2(c3cc(C#CC4=CCCCC4)ccc31)[C@H](C(=O)NC[C@H](O)c1ccccc1)[C@H]1C(=O)O[C@H](c3ccccc3)[C@H](c3ccccc3)N1[C@@H]2c1ccc(O)cc1,0.8
C[C@H]1CN([C@@H](C)CO)C(=O)c2cccc(NS(=O)(=O)c3ccc(Cl)cc3)c2O[C@@H]1CN(C)Cc1ccc(C(=O)O)cc1,-1.4
C[C@@H]1CN([C@H](C)CO)C(=O)c2cccc(NC(=O)Nc3ccc4c(c3)OCO4)c2O[C@H]1CN(C)Cc1ccc(C(F)(F)F)cc1,0.2
Cc1noc(C)c1S(=O)(=O)Nc1cccc2c1O[C@@H](CN(C)C(=O)NC(C)C)[C@@H](C)CN([C@@H](C)CO)C2=O,-0.6
Cc1ccc(S(=O)(=O)N(C)C[C@@H]2OCCCC[C@@H](C)Oc3ccc(NS(=O)(=O)c4ccc(F)cc4)cc3C(=O)N([C@@H](C)CO)C[C@@H]2C)cc1,-1.4
CC(C)NC(=O)N(C)C[C@H]1Oc2ccc(NS(=O)(=O)c3ccccc3)cc2CC(=O)N([C@H](C)CO)C[C@H]1C,0.2
C[C@@H]1CCCCO[C@@H](CN(C)S(=O)(=O)c2cccs2)[C@H](C)CN([C@@H](C)CO)C(=O)c2cc(NC(=O)NC3CCCCC3)ccc2O1,0.7
O=C(N/N=C/c1cccc(OCCO)c1)c1ccccn1,-10.6

# 5 compounds out of the list, arranged by SMILES length, falling.
mol,A1 apoptosis 2
COc1ccc(S(=O)(=O)Nc2ccc3c(c2)CC(=O)N([C@H](C)CO)C[C@@H](C)[C@@H](CN(C)S(=O)(=O)c2ccc(F)cc2)O3)cc1,-0.1
C[C@@H]1CCCCO[C@@H](CN(C)C(=O)CCC(F)(F)F)[C@@H](C)CN([C@H](C)CO)C(=O)c2cc(NC(=O)Cc3ccccc3)ccc2O1,0.5
C[C@@H]1CN([C@H](C)CO)C(=O)c2cc(N(C)C)ccc2O[C@@H](C)CCCCO[C@H]1CN(C)S(=O)(=O)c1ccccc1,0.3
CCCN(C)C[C@H]1OCCCC[C@H](C)Oc2ccc(NS(=O)(=O)c3cccs3)cc2C(=O)N([C@@H](C)CO)C[C@H]1C,-1.0
C[C@H](CO)N1C[C@H](C)[C@H](CN(C)S(=O)(=O)c2ccc(C#N)cc2)Oc2ncc(-c3ccccc3)cc2C1=O,0.3

# Continued.
mol,A1 apoptosis 2
Cc1noc(C)c1NC(=O)Nc1ccc2c(c1)CC(=O)N([C@H](C)CO)C[C@@H](C)[C@H](CN(C)C(=O)NC(C)C)O2,0.9
Cc1ccc(S(=O)(=O)N(C)C[C@@H]2Oc3ccc(NC(=O)Nc4ccccc4)cc3CC(=O)N([C@H](C)CO)C[C@H]2C)cc1,-1.3
C#CCNC(=O)C1=C[C@@H](C2CC2)[C@H](CCCO)[C@@H](OCC)O1,0.4
Cc1noc(C)c1S(=O)(=O)N(C)C[C@@H]1Oc2ccc(NC(=O)Nc3cccc4ccccc34)cc2CC(=O)N([C@@H](C)CO)C[C@H]1C,0.3
Cc1noc(C)c1S(=O)(=O)N(C)C[C@@H]1OCCCC[C@@H](C)Oc2ccc(NS(C)(=O)=O)cc2C(=O)N([C@@H](C)CO)C[C@H]1C,-1.1
Cc1noc(C)c1NC(=O)Nc1ccc2c(c1)C(=O)N([C@H](C)CO)C[C@H](C)[C@@H](CN(C)S(=O)(=O)c1cccs1)OCCCC[C@@H](C)O2,1.7
CC(C)NC(=O)N(C)C[C@H]1OCCCC[C@H](C)Oc2ccc(NC(=O)Cc3ccccc3)cc2C(=O)N([C@H](C)CO)C[C@@H]1C,-0.9

# A portion of the library (hit frequency here may not be typical).
